# High-throughput results (PubChem)
# Ecoli growth = E. coli growth inhibition, primary screen, OD600; Escherichia coli growth, 23 h; stronger effect = lower value; OD600 absorbance (concentration not given with the values); 330,000 compounds, 0.21% hits; AID 1053175, 2014;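 active = OD600 absorbance below the run mean of sample wells minus 3.6 SD, in any replicate, cut at about 0.56 in these data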;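 note: stock transfer was 300 nL into about 60 µL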
# MLL AF4-AF9 inh = inhibitors of AF4 peptide binding to AF9, primary screen, biochemical, AlphaScreen, biotin-AF4 peptide, FLAG-AF9, single point; 350,000 compounds, 0.47% hits; Protein AF-9 (Homo sapiens), P42568; inhibition, % at 10 µM;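 active = every replicate reaching a set inhibition limit, whatever the replicate mean, cut at about 25% in these data; inconclusive = mean inhibition reaches that limit but some replicates miss it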;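 note: 0% = plate neutral control median and 100% = total signal loss; the record names both 10 and 1 µM as test concentration; the first replicate is given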
# Target sequence (P42568 whole entry, looked up): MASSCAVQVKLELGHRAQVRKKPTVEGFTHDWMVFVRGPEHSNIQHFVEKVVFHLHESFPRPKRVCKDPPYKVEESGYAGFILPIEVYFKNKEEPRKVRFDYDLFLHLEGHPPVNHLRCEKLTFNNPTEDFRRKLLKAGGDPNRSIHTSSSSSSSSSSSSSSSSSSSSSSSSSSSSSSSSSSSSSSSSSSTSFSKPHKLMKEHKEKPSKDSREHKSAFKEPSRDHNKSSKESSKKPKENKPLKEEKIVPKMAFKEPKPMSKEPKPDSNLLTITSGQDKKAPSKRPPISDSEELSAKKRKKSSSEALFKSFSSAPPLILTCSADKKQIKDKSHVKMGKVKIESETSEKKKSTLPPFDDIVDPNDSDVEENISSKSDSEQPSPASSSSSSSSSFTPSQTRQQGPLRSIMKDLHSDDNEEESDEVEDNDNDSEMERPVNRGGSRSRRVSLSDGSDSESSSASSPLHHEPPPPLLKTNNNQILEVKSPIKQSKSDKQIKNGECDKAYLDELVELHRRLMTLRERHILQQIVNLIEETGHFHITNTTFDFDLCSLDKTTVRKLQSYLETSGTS
# Ecoli rRNA inh = reduced GFP signal of wild-type E. coli, primary screen, bacterial rRNA inhibitor project, GFP/RFP fluorescence, OD600, single point. E. coli WT GFP vs humanized-ribosome RFP mutants, 24 h; stronger effect = lower value; DMSO median 0, no signal -100. GFP signal change (wild-type ribosome), % (test concentration not listed). 350,000 compounds, 1.6% hits;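 active = significant combined selectivity score with lowered wild-type GFP, culture density cut under 30%, mutant RFP and density less affected; inactive = any of these conditions unmet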; note: one replicate is shown; some compounds called inactive have numbers as strong as hits
# UCH37 inh = inhibitors of human UCH37 deubiquitinase, primary screen, biochemical, Ub-AMC cleavage, fluorescence; Ubiquitin carboxyl-terminal hydrolase isozyme L5 (Homo sapiens), Q9Y5K5; purified proteasome/UCH37; inhibition, % (test concentration not listed); 330,000 compounds, 0.33% hits; AID 588478, 2011;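 active = mean of two replicates above 20%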;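 note: 0% = compound-free wells with enzyme and 100% = wells lacking proteasome; stock transfer was 100 nL into about 20 µL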
# Target sequence (Q9Y5K5 whole entry, looked up): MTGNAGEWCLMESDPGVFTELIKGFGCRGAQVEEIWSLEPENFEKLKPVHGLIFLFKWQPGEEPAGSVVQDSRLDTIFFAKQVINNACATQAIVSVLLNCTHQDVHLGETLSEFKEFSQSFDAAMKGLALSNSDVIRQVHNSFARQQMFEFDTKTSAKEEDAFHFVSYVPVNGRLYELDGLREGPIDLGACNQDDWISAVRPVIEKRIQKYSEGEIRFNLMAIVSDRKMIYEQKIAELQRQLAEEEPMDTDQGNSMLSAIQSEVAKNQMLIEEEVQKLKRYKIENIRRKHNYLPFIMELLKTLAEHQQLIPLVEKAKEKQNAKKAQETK
#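 System: Proteasome-associated human UCH37 deubiquitinase; Input: 0.15 nM proteasome in added enzyme buffer; Also added: Ub-AMC substrate from 1 µM stock; Incubation: 30 min compound-proteasome preincubation then 25 min substrate reaction, room temperature; Detection: fluorescence, ex 355 nm, em 460 nm; Read-out: % inhibition of Ub-AMC cleavage fluorescence; Benchmarks: no-proteasome and no-compound wells.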
# FGF22 binding = binders of human FGF22 protein, primary screen, FGF22 synaptogenesis inhibitor project, biophysical, thermal shift, single point; Fibroblast growth factor 22 (Homo sapiens), Q9HCT0; recombinant FGF22 thermal shift, SYPRO orange fluorescence; percent of sucrose octasulfate shift, DMSO zero; calls only at 9.99 µM; 340,000 compounds, 1.5% hits; AID 651658, 2012;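 active = melting point raised past a set limit in the mean and every replicate; inconclusive = no clear call; three in four hits are not shown here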
# Target sequence (Q9HCT0 whole entry, looked up): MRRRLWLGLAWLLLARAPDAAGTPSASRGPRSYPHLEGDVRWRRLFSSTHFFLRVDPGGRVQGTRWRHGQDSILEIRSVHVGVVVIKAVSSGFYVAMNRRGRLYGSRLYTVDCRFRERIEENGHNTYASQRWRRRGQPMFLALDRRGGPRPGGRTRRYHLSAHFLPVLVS
# T cruzi repl = inhibitors of intracellular T. cruzi growth, primary screen, luminescence, NIH3T3 host cells. 300,000 compounds, 1.4% hits. inhibition, % (no concentration beside the values). T. cruzi beta-gal in NIH3T3, 90 h;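 active = mean inhibition across valid replicates above about 55%, limit read from the data; inconclusive = mean below that limit but half or more replicates reach it; inactive = mean below it, under half of replicates reach it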;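 note: signal also drops with host cell toxicity which is not excluded here; 0% = plate median of DMSO wells and 100% = zero luminescence signal; higher percent means less beta-gal luminescence so fewer parasites; stock transfer was 50 nL into about 50 µL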
# A1 inh = caspase 3/7 activation in MEF A1-2A-BIM cells, primary screen, A1 inhibitor project, cell-based, luminescence, HTS; 330,000 compounds, 0.066% hits; Caspase-Glo 3/7 luminescence, 3 h; percent of clofoctol response, vehicle zero; caspase activation, % (test concentration not listed);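 active = over half of replicate activation scores above 10%, or exactly half above 10 with the replicate mean above 10; inconclusive = replicate mean below 10 yet half the replicates above 10; inactive = over half of replicates below 10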;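 note: wells of about 30 µL received 50 nL stock; many hits fall short of the cut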
# Beta apoptosis = inhibitors of cytokine-induced beta cell apoptosis, primary screen, luminescence; INS-1E cytokine-induced death, ATP luminescence, 48 h; percent of positive-control rescue, neutral wells zero; protection from apoptosis, % (no concentration beside the values); 300,000 compounds, 0.8% hits;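 active = all replicates at 75% or more, or half of them and the mean; inconclusive = half reach 75% but not the mean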;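 note: 0% = cytokine-treated negative control wells and 100% = positive control rescue; higher means more ATP so stronger rescue from cytokine killing; wells of about 40 µL received 100 nL stock; the first replicate is given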
# Ecoli rRNA inh OD600 = recorded beside Ecoli rRNA inh, whose call it bears; OD600 change, %; measured here: OD600 growth;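 optical density of the mix in the first replicate; 0 = DMSO median and -100 = no signal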
# Ecoli rRNA inh RFP = further read-out of Ecoli rRNA inh, marked with its call; RFP signal change, %; measured here: RFP humanized mutant strains;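 first replicate; 0 = DMSO median and -100 = no signal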
# The depositor's hits bear a star; i = inactive; ? = inconclusive; nt = no result given; + = active, no number; & = joins results of further samples.
SMILES,Ecoli growth,MLL AF4-AF9 inh,Ecoli rRNA inh,Ecoli rRNA inh OD600,Ecoli rRNA inh RFP,UCH37 inh,FGF22 binding,T cruzi repl,A1 inh,Beta apoptosis
C=CCn1c(O)c(/C=C2/C=c3ccccc3=N2)c(=O)[nH]c1=S,0.67,-1.3,0,1,0.1,1.8,i,-9,1.2,5
CC(=O)Nc1cccc([As](=O)(c2cccc(NC(C)=O)c2)c2cccc(NC(C)=O)c2)c1,0.65,13,6,0,-3.7,2.0,i,-2,1.0,-6
CCCc1nc2ccccc2c(=O)n1-c1ccccc1OC,0.68,nt,nt,nt,nt,-2.5,nt,4,0.3,8
COc1ccccc1OC(=O)c1ccc(C)c(S(=O)(=O)N2CCOCC2)c1,0.61,-0.6,-2,-14,0.7,2.4,i,-9,1.0,-4
O=C(c1ccccc1F)c1cn(CC(=O)N2CCOCC2)c2ccccc12,0.75,nt,nt,nt,nt,5.7,nt,8,-1.8,2
CCOC(=O)C(O)(c1ccc(NC(=O)Oc2ccccc2)cc1)C(F)(F)F (stereo unspecified),0.68,-4.0,9,4,2.2,4.8,i,-4,0.5,-1
O=c1c(C=NCCN2CCNCC2)c(O)n(C2CCCCC2)c(=O)n1C1CCCCC1,0.71,nt,nt,nt,nt,0.3,nt,22,-0.1,4
COC(=O)NC(=C(Cl)Cl)P(=O)(c1ccccc1)c1ccccc1,0.67,nt,14,2,0.1,1.3,i,-13,0.8,3
CN1C(=O)/C(=C\c2ccc(Br)s2)C(=O)NC1=S,nt,-2.4,4,1,0.0,nt,i,-6,0.1,-7
CC1(c2ccc(Cl)cc2Cl)OCC(Cn2cncn2)O1 (stereo unspecified),0.7,3.3,-6,-8,-5.0,1.5,nt,-26,0.4,5
Cc1cc(OCC(=O)O)c2c3c(c(=O)oc2c1)CCCC3,0.71,nt,nt,nt,nt,-175,nt,-1,-1.2,-13
C=CCN1C(=O)/C(=C/c2ccc(N3CCOCC3)o2)C(=O)NC1=S,0.69,nt,nt,nt,nt,11,nt,-9,-0.6,-4
COC(=O)C1=C(c2ccc3ccccc3c2)C[C@@H]2CC[C@H]1N2C(=O)N1CCOCC1,nt,-15,nt,nt,nt,0.4,i,nt,0.6,-6
COc1ccc(CN2CCNCC2)cc1,0.66,0.8,11,5,-1.5,1.5,i,1,-2.2,-2
Cc1cccc(N2CCN(Cc3ccc4c(c3)OCO4)CC2)c1C,0.68,8.3,-18,-19,0.8,5.6,i,-3,0.1,-9
O=NN1CCCCC1,0.66,nt,8,5,0.2,2.6,i,nt,0.0,-1
O=c1[nH]c(=O)n(CCc2ccc(F)cc2)c(O)c1/C=N/N1CCCCC1,0.66,-0.8,15,12,7.3,4.4,i,2,-0.2,-2
COC(=O)C1=C(c2cc3ccccc3s2)C[C@@H]2CC[C@H]1N2C(=O)N1CCCCC1,nt,17,-27,-35,-18,0.8,i,2,0.4,4
Brc1ccc(Oc2ccc(Br)cc2Br)c(Br)c1,0.69,nt,6,2,0.0,3.4,i,nt,0.1,6
c1ccc(CCNCc2cccnc2)cc1,0.71,3.5,13,4,17,5.3,i,-16,0.8,nt
Cc1ccccc1NP(=O)(Oc1ccccc1F)Oc1ccccc1F,0.67,nt,nt,nt,nt,1.9,nt,3,0.2,-4
O=C([O-])c1ccc(-[n+]2c(-c3ccccc3)cc(-c3ccccc3)cc2-c2ccccc2)cc1,0.71,18,-7,-9,-4.0,4.8,i,31,0.6,12
COC(=O)[C@@H]1C[C@H]1[C@@H](NP(=O)(c1ccccc1)c1ccccc1)c1ccccc1,nt,nt,14,17,-0.2,1.2,i,-9,0.6,0
Cc1ccnc(-n2c(-c3ccco3)nc3ccccc3c2=O)c1,0.66,nt,nt,nt,nt,5.3,nt,-1,0.2,-3
CCCCCSc1cc(OC)c(CCN)cc1OC,0.66,nt,nt,nt,nt,0.9,nt,13,0.7,27
Cc1cccc(-n2c(O)c(C=NCc3cccnc3)c(=O)[nH]c2=O)c1C,0.64,nt,nt,nt,nt,4.6,nt,-7,-0.4,1
CCC(=NCCc1c[nH]c2ccccc12)c1c(O)n(C)c(=O)n(C)c1=O,0.65,nt,nt,nt,nt,5.1,nt,-18,-0.5,38
O=S(=O)(NC1CCCCCCC1)OCC(Cl)(Cl)Cl,0.62,-0.6,-27,-25,3.6,1.0,i,14,-1.0,nt
C#CCN[C@H](C)Cc1ccccc1,nt,-1.6,nt,nt,nt,0.0,i,nt,-0.2,-7
CCC(Oc1cc(Cl)ccc1Cl)C(=O)N1CCC2(CC1)OCCO2 (stereo unspecified),0.68,-6.9,-10,-16,-4.1,5.7,i,6,-0.4,5
Cc1ccc[n+](CC(O)Cn2c3ccccc3c3ccccc32)c1 (stereo unspecified),0.65,nt,nt,nt,nt,4.6,nt,-5,0.3,-6
O=c1[nH]c(=O)n(-c2ccccc2)c(O)c1C=NC12CN3CN(CN(C3)C1)C2,0.68,-2.4,19,14,1.1,1.9,nt,-6,2.6,-11
COC(=O)C1=C(c2ccc(F)cc2F)C[C@@H]2CC[C@H]1N2C(=O)NCCO,nt,-2.0,24,24,-4.5,-1.5,i,nt,0.1,2
C=CCN1C(=O)CSc2ccc(C(=O)N3CCC4(CC3)OCCO4)cc21,0.71,nt,nt,nt,nt,2.4,nt,4,1.3,5
O=C1c2ccccc2C(=O)N1Cc1nc2ccccc2c(=O)n1-c1ccc(Br)cn1,0.76,nt,nt,nt,nt,-1.1,nt,7,0.1,-7
c1ccc(CCn2nnnc2CN2CCC(n3nnc4ccccc43)CC2)cc1,0.72,nt,nt,nt,nt,0.0,nt,3,-0.7,-7
Cc1cc(C)cc(N2C(=O)/C(=C\c3ccc(N4CCN(C)CC4)o3)C(=O)NC2=S)c1,0.71,-2.0,nt,nt,nt,24*,i,-3,0.5,-14
O=C(Cn1nc(Cc2cccnc2)c2ccccc2c1=O)N1CCC2(CC1)OCCO2,0.71,nt,nt,nt,nt,0.7,nt,-3,0.3,1
O=C(CN1CC(c2ccccc2)CC1=O)Nc1ccccc1 (stereo unspecified),0.69,-1.2,5,9,-1.0,2.8,i,-3,0.7,-2
CC1(C)CC(=O)C(C=NCCN2CCN(C(=O)Cc3ccc(F)cc3)CC2)=C(O)C1,0.68,nt,nt,nt,nt,-1.2,nt,-6,-0.3,-3
O=C(/C=C/c1ccccc1)c1c(O)n(CCc2ccccc2)c(=O)[nH]c1=O,0.72,2.6,nt,nt,nt,-17,i,-27,0.2,2
COC(=O)C1=C(c2ccc(C(C)=O)cc2)C[C@@H]2CC[C@H]1N2C,nt,-0.3,7,8,7.5,0.5,i,nt,1.4,-7
C[n+]1ccc(-c2cc[n+](C)cc2)cc1,0.66,-4.1&-3.1,8&-1,-3&-3,5.1&7.5,0.1,i,nt,-0.6,24
O=c1[nH]c(O)c(C=Nc2ccccc2Oc2ccccc2)c(=O)[nH]1,0.64,0.4,8,3,-2.1,-104,i,-16,0.7,-5
CCN1C(=O)C(=Cc2c(C)n(CC(=O)NCC3CCCO3)c3ccccc23)C(=O)N(CC)C1=S (stereo unspecified),0.7,-0.3,2,9,65,5.5,i,-14,0.0,-6
COC(=O)C1=C(c2ccccc2OCc2ccccc2)C[C@@H]2CC[C@H]1N2C(=O)NCc1ccc(OC)cc1,nt,-1.1,-4,-5,-1.0,3.8,i,nt,1.1,-10
O=C1NC(=O)N(Cc2ccccc2)C(=O)/C1=C\C=C\c1ccco1,0.72,-0.2,4,9,5.3,8.0,i,-18,1.6,6
CN1C(=O)C(=Cc2c(OCc3cnc(Cl)s3)ccc3ccccc23)C(=O)N(C)C1=O,0.66,2.8,-8,11,5.7,4.8,i,3,-0.8,-1
O=C1NC(=O)N(c2ccc3c(c2)OCO3)C(=O)/C1=C\c1ccc(-c2ccccc2C(=O)O)o1,0.67,1.6,11,6,3.0,1.0,i,3,0.4,-2
Cc1cccc(C(=O)NC(Oc2ccccc2)C(Cl)(Cl)Cl)c1 (stereo unspecified),0.7,nt,nt,nt,nt,2.1,nt,-11,0.6,3
Oc1cccc2nc3ccccc3nc12,0.66,-1.3,nt,nt,nt,4.7,i,-11,-1.0,1
OC1/C(=C/c2ccccc2F)N2CCC1CC2 (stereo unspecified),0.67,0.6,16,6,-0.6,1.1,i,-12,0.2,0
O=c1[nH]c2c(c(=O)n1C1CCCCC1)CCC2,0.68,nt,nt,nt,nt,0.1,nt,-25,1.0,-4
N#CC1=C(N)Oc2c(c(=O)sc3ccccc23)C1c1ccncc1 (stereo unspecified),0.7,-1.2,1,-17,1.4,1.1,i,-8,0.0,-2
CCOc1ccc(CN(CCCl)CCCl)cc1C(=O)OC,0.68,nt,nt,nt,nt,9.3,nt,-1,-1.1,8
CCOC(=O)COc1ccc(/C=C2\C(=O)NC(=S)N(c3ccc(OC)cc3)C2=O)cc1OC,0.66,-8.8,11,7,-0.5,3.6,i,-10,-1.1,-6
CCOc1cc2[nH]c(=S)n(CCCC(=O)N3CCC4(CC3)OCCO4)c(=O)c2cc1OCC,0.69,nt,nt,nt,nt,7.3,nt,-3,-0.8,0
Cc1ccccc1C1=NCC(=O)N(CC(=O)NCc2ccco2)c2sc3c(c21)CCCC3,0.65,nt,nt,nt,nt,5.6,nt,nt,?,-3
CC12CCC3c4ccc(OP(=O)(N5CC5)N5CC5)cc4CCC3C1CCC2=O (stereo unspecified),0.69,0.2,-12,-10,-0.3,1.2,i,nt,nt,nt
COc1ccc(C2(C#N)CC[N+](C)(C)CC2)cc1,0.73,nt,nt,nt,nt,0.4,nt,-14,-0.3,5

# The listing continues.
SMILES,Ecoli growth,MLL AF4-AF9 inh,Ecoli rRNA inh,Ecoli rRNA inh OD600,Ecoli rRNA inh RFP,UCH37 inh,FGF22 binding,T cruzi repl,A1 inh,Beta apoptosis
CC(C)c1ccc(N2C(=O)NC(=O)/C(=C/c3cnc(-c4ccccc4)nc3)C2=O)cc1,0.71,5.0,22,10,-4.2,3.3,i,-3,-1.0,-2
O=Cc1cn(Cc2ccc([N+](=O)[O-])cc2)c2ccccc12,0.73,nt,nt,nt,nt,5.1,nt,-4,0.6,0
OC(CNCCc1c[nH]c2ccccc12)c1ccccc1 (stereo unspecified),0.69,4.0,9,8,0.6,3.5,+,-2,-1.2,-6
CN1CCc2c(C#N)c(Cl)nc(Cl)c2C1,0.68,-0.4,-2,1,0.9,-158,i,0,0.0,-4
CN1CCN(c2cc([N+](=O)[O-])ccc2Cl)CC1,0.68,-2.3,8,5,0.1,2.5,i,-1,-0.2,-1

# Only part of the results is shown (hit frequency here may not be typical).
